Bioassay records deposited in PubChem by Johns Hopkins Ion Channel Center.
KCNQ2 enhance: KCNQ2 (rat) channel potentiation. O88943. CHO-K1 KCNQ2, FluxOR thallium flux fluorescence; stronger effect = higher value. B-score at 10 µM. 0.54% of 310,000 active. AID 2239;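 active means fluorescence ratio B-score at least 3 SD of library B-scores, with initial fluorescence B-score within 3 SD, cut at about 5.3 in these data; same plate scores as AID 2156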;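 further: B-score of peak minus minimum over baseline fluorescence ratio after K+ and Tl+ stimulus; positive B-score means potentiation of KCNQ2 with more thallium influx and brighter signal; only the inactives scoring about 0 or higher are listed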
Target sequence (O88943 whole entry, looked up): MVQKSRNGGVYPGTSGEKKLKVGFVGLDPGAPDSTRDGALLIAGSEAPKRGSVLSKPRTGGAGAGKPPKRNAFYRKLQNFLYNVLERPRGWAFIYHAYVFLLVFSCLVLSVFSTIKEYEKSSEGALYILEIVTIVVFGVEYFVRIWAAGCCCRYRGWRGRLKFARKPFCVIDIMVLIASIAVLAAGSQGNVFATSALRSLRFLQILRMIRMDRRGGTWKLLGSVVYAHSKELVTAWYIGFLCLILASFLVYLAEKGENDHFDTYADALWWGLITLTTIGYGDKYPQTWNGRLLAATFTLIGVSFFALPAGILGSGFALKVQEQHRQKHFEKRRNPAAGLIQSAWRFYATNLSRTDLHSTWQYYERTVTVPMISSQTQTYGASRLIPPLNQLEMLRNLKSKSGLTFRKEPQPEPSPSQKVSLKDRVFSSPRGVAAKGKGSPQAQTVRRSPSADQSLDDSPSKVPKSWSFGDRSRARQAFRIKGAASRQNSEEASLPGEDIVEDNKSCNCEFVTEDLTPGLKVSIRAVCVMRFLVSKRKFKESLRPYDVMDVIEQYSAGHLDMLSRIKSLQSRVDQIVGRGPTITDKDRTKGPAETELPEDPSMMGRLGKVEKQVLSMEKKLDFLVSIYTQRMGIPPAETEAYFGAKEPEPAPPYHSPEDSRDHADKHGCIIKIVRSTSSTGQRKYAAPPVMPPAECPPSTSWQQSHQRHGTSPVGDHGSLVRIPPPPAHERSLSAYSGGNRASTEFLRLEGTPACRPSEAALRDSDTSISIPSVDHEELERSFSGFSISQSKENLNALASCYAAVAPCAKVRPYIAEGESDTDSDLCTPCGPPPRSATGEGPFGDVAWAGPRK
KCNQ2 enhance baseline: recorded beside KCNQ2 enhance, whose call it bears; B-score; compound at 10 µM; measured here: initial fluorescence intensity artifact check;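 brightness before thallium and not channel activity; 0 = typical well and far values either way flag optical interference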
* = called active by the depositor. Only part of the results is shown; rates above refer to the full screens.

Values in the order: KCNQ2 enhance | KCNQ2 enhance baseline
> CC(C(=O)NN=C(c1ccccc1)c1ccccc1)N1CCCC1 (centres undefined)
    0.12 | 0
> COC(=O)c1ccc(Nc2nc(C)nc3c2nnn3Cc2ccccc2)cc1
    0.73 | 0.23
> Cc1cc(Br)ccc1NC(=O)C1CCN(C(=O)c2ccco2)CC1
    0.56 | 1.76
> O=[N+]([O-])c1cccc(/C=N/Nc2nc(NCc3ccccc3)nc(N3CCOCC3)n2)c1
    0.21 | 0.41
> CC(SCC(=O)Nc1ccc(F)cc1)c1nc2ccccc2c(=O)[nH]1 (centres undefined)
    0.59 | 2.13
> N#CCSc1nnc(COc2ccccc2)n1-c1ccccc1
    0.28 | -0.35
> Clc1cccc(Cl)c1Cn1nnc(-c2cccs2)n1
    0.19 | -0.33
> COc1ccc(CCNS(=O)(=O)c2csc(C(N)=O)c2)cc1OC
    1.46 | -0.84
> O=S(=O)(NCc1ccccc1F)NCc1ccccc1F
    1.15 | -0.44
> Cn1c(SCC(=O)Nc2ccc(Br)cn2)nnc1C1CC1
    0.52 | -1
> c1ccc(-n2c(SCc3ccncc3)nnc2-c2ccco2)cc1
    0.02 | 1.34
> Cc1ccc2oc3nc(C)c(C(=O)Nc4cccc(C(F)(F)F)c4)cc3c(=O)c2c1
    1.75 | -0.57
> COc1ccc(-c2nc3nc(C)cc(=O)n3[nH]2)cc1
    0.88 | 2.76
> CCCC(=NCc1ccccc1)C1=C(O)C(C(=O)OC)C(C)(C)CC1=O (centres undefined)
    0.03 | -0.54
> O=C(NCCCCc1ccccc1)c1ccc(Br)cc1
    1.24 | -1.39
> COc1ccccc1CNC(=O)Cc1ccccc1
    0.37 | -0.57
> CC1CCc2sc3nc(NCc4ccco4)n4ncnc4c3c2C1 (centres undefined)
    2.56 | 0.68
> Cc1ccc(CCCOC(=O)CN2CCCCC2)cc1
    1.41 | -0.09
> COc1ccc(CN2CCN(C(=O)C3CC(=O)N(C4CCCCCC4)C3)CC2)c(OC)c1OC (centres undefined)
    0.38 | 1.44
> N#Cc1ccc(CSc2nnc(Nc3ccccc3)s2)cc1
    1.03 | -0.03
> CCN1CCN(C(=S)c2ccc(Cl)cc2)CC1
    1.88 | -0.07
> COc1cc(SC)ccc1C(=O)Nc1ccc(OCC(=O)N2CCOCC2)cc1
    0.53 | -0.65
> COc1ccc(/C=C2\SC(=S)N(CC(=O)N3CCN(C)CC3)C2=O)cc1
    0.24 | -0.03
> O=C(NC1(C(F)(F)F)NC(=O)N(C2CCCCC2)C1=O)C1CC1 (centres undefined)
    0.49 | 0.53
> CCCOC(=O)c1ccc(NC(=O)COC)cc1
    0.7 | 0.72
> NS(=O)(=O)c1ccc(NC(=S)NCC2CCCO2)cc1 (centres undefined)
    0.96 | -1.61
> CN1c2ccc(Cl)cc2C(=O)NC1c1ccc([N+](=O)[O-])s1 (centres undefined)
    0.04 | 0.34
> N#Cc1nc(Cc2cccc3ccccc23)oc1N1CCOCC1
    0.03 | 0.29
> CC(=O)c1cccc(NC(=S)NC(=O)c2ccccc2Br)c1
    0.32 | 1.38
> COC(=O)C(C)(C)ONC(=O)Nc1ccccc1Br
    2.6 | -1.05

The closing seven entries of the section above open the next one:
Values in the order: KCNQ2 enhance | KCNQ2 enhance baseline
> O=C(NC1(C(F)(F)F)NC(=O)N(C2CCCCC2)C1=O)C1CC1 (centres undefined)
    0.49 | 0.53
> CCCOC(=O)c1ccc(NC(=O)COC)cc1
    0.7 | 0.72
> NS(=O)(=O)c1ccc(NC(=S)NCC2CCCO2)cc1 (centres undefined)
    0.96 | -1.61
> CN1c2ccc(Cl)cc2C(=O)NC1c1ccc([N+](=O)[O-])s1 (centres undefined)
    0.04 | 0.34
> N#Cc1nc(Cc2cccc3ccccc23)oc1N1CCOCC1
    0.03 | 0.29
> CC(=O)c1cccc(NC(=S)NC(=O)c2ccccc2Br)c1
    0.32 | 1.38
> COC(=O)C(C)(C)ONC(=O)Nc1ccccc1Br
    2.6 | -1.05
> CCCCNC(=O)COc1ccccc1[N+](=O)[O-]
    0.63 | 0.37
> COc1ccc(NC(=O)CSc2nnc(C)c3ccccc23)cc1
    0.66 | 0.07
> C/C(=N\N1CCN(c2ccccc2)CC1)c1cccs1
    0.66 | 0.49
> O=C(CSc1nnc(-c2ccc(OC(F)F)cc2)o1)N1CCOCC1
    0.19 | 0.01
> O=C(NCCCn1ccnc1)C(Cc1ccccc1)N1C(=O)c2ccccc2C1=O (centres undefined)
    0.4 | 0.15
> COC(=O)C(CCCCN1C(=O)C2C3C=CC(C3)C2C1=O)N1C(=O)C2C3C=CC(C3)C2C1=O (centres undefined)
    0.66 | -3.01
> Cc1cc(=O)oc2c(C)c(OCC(=O)Nc3cccnc3)ccc12
    1.54 | 0.2
> CC1=NN(c2ccccc2)C(=O)/C1=C/c1c(O)n(-c2ccc(F)c(Cl)c2)[nH]c1=O
    1.65 | 2.64
> O=C(COC(=O)c1ccc(Br)o1)NCCNC(=O)COC(=O)c1ccc(Br)o1
    1.27 | 0.27
> COC(=O)C1=C(C)Nc2nnnn2C1c1cccnc1 (centres undefined)
    0.05 | -1.57
> COc1cc(C(=O)Nc2ccc(NC(=O)c3ccccc3)nc2)cc(OC)c1OC
    0.38 | -1.05
> COC(=O)c1ccsc1NC(=O)c1ccccc1
    0.58 | -2.23
> Cc1cc(N2CCOCC2)n2ncc(-c3ccc(Cl)cc3)c2n1
    0.14 | -0.01
> Cc1cc(C)cc(SCc2noc(C(=O)NCCCN3CCOCC3)c2C(=O)NCCCN2CCOCC2)c1
    1.14 | -1.04
> O=C(CCCn1c(=O)[nH]c2cc(Cl)ccc2c1=O)NCCCN1CCN(c2ccc(F)cc2)CC1
    0.14 | 1.27
> S=c1[nH]nc(-c2ccccc2)n1/N=C/c1c[nH]c2ccccc12
    0.19 | -1.72
> CCC(c1nnc(SCC(=O)N2CC(=O)Nc3ccccc32)n1Cc1ccccc1)N(C)C (centres undefined)
    0.03 | -0.05
> CNc1n[nH]c(=S)s1
    0.88 | 3.55
> CN(C)C(CNC(=O)CCc1nc2ccccc2s1)c1ccccc1 (centres undefined)
    2.51 | 0.02
> CCCC(=O)Nc1nnc(S(=O)(=O)N2CCCC2)s1
    0.09 | 0.4
> Cc1noc(C)c1CSc1nnc(-c2ccccc2)o1
    0.32 | -0.9
> Cc1cc[n+](CCC(=O)O)c2ccccc12
    0.72 | -0.62
> CCc1cccc(CC)c1NC(=O)CN1CCN(c2ccccc2)CC1
    0.12 | 4.06
> C=CCNC(=S)N1CCN(CCN=CC2=C(O)CC(c3ccc(Cl)cc3)CC2=O)CC1 (centres undefined)
    1.32 | -1.36
> CCOC(=O)N1CCN(S(=O)(=O)c2ccc(Cl)cc2)CC1
    0.2 | -1.98
> Cc1cc(N2CCOCC2)nc2ccc(NC(=O)CCC(=O)N3CCCC(C)C3)cc12 (centres undefined)
    0.12 | 1.58
> CCCCNC(=O)Nc1nnc(-c2ccc(Cl)cc2)o1
    0.26 | 0.04
> CCCCNC(=O)COn1nnc2ccc(S(=O)(=O)N3CCOCC3)cc21
    0.47 | 0.53
> CCc1ccc(NC(=O)NCCN2CCCCC2)cc1
    0.65 | 1.19
> COCCn1c(SCC(=O)N2CCCCC2)nc2cccnc21
    1.37 | -0.11
> CC(=O)Nc1ccc(NC(=S)NC(=O)C2CCCC2)cc1
    0.63 | -0.66
> Cc1cc2cc(CNC(=S)NCc3ccccc3)ccc2n1C
    0.76 | 2.28
> COc1ccc(C(=O)[C@H]2[C@H]3C(=O)N(c4ccccc4)C(=O)[C@H]3C3C=CC=NN32)cc1 (some centres undefined)
    1.08 | -0.04
> C[C@@H](C(=O)N1CCNCC1)n1cc(CCC(=O)O)nn1
    0.36 | -0.44
> CCc1noc(C)c1C(=O)NCCc1c[nH]c2ccccc12
    2.5 | -2.45
> CCCN=C1CC(C)(C)CC(=O)/C1=C(/O)CCCN1C(=O)c2ccccc2C1=O
    0.31 | -0.17
> COc1ccc(C(=O)N/C(=C\c2ccco2)C(=O)NCc2cccnc2)cc1
    0.93 | -0.91
> CS(=O)(=O)N1CCN(c2ccccc2NC(=O)c2cccnc2Cl)CC1
    1.25 | -1.18
> CC(C)(C)N(NC(=O)Nc1ccccc1)C(=O)c1ccccc1Cl
    1.59 | -0.31
> CC1(C)C(=O)Nc2ccccc2N1C(=O)COc1ccc(S(=O)(=O)N2CCOCC2)cc1Cl
    0.3 | -2.61
> Cc1cc(C)c(C)c(OCCOCCNCc2ccccc2)c1
    2.06 | -0.82
> COc1ccc(Nc2ccccc2)c(C)c1
    0.3 | 0.62
> CCC(=O)N1c2ccc(S(=O)(=O)N(CCO)Cc3ccccc3)cc2CC1C (centres undefined)
    0.24 | -0.32
> Cc1sc2ncnc(SCC(=O)N3CCCC(C(N)=O)C3)c2c1C (centres undefined)
    0.12 | -0.57
> CCCOc1ccc(-c2nc[nH]c2[N+](=O)[O-])cc1
    1.25 | -2.18
> COc1ccc(C(c2sc3nc(C)nn3c2O)N2CC(C)OC(C)C2)cc1OC (centres undefined)
    0.98 | -0.05
> CC(C)CC(NC(=O)C(NC(=O)C(Cc1ccc(OCc2ccccc2)cc1)NC(=O)OC(C)(C)C)C(C)C)C(N)=O (centres undefined)
    0.08 | -0.41
> CCOc1cccc2sc(N(CCN(C)C)C(=O)CCS(=O)(=O)c3ccccc3)nc12
    0.34 | 0.09
> CCOc1cccc(C(=O)N/N=C/c2ccoc2)c1
    1.08 | 1.23
> CC(C)(C)NC(=O)c1nn2c(C(F)(F)F)cc(-c3ccccc3)nc2c1Br
    0.25 | -1.1
> CSc1ncc(CN2CCc3c([nH]c4ccccc34)C2c2cccc(O)c2)cn1 (centres undefined)
    0.02 | -0.33
> C=CCNC(=O)c1cc2nc(C3CC3)cc(C(F)F)n2n1
    0.6 | 0.28
> O=C(Nc1nc2c(s1)CCCC2)c1cc(-c2ccncc2)nc2ccccc12
    1.02 | 0.91
> CCOc1ccccc1Nc1nc(-c2sc(C)nc2C)cs1
    0.04 | 0.64
> COCCOC(=O)c1ccc(NC(=O)COc2ccc([N+](=O)[O-])cc2)cc1
    0.63 | 2.06
> Cc1nnc2c(SC(C)C)nc3ccccc3n12
    0.35 | 0.14
> CC(C)c1nnc(NC(=O)C2CCCCC2)s1
    1.72 | -0.08
> C=CCN1C(=O)C(CCCC)NC1=S (centres undefined)
    0.55 | -0.33
> Cn1c2ccccc2c2n[nH]c(=S)nc21
    0.25 | -1.86
> CSc1ccccc1NC(=O)Nc1cccc(Cl)c1C
    0.05 | 0

Continuation:
Values in the order: KCNQ2 enhance | KCNQ2 enhance baseline
> CCCCC(=O)Nc1ccnc(-c2cccnc2)n1
    0.29 | 0.54
> Cc1ccc(NC(=O)c2ccc(CSc3nnc(-c4ccncc4)n3C)cc2)cc1
    0.66 | 1.48
> Cc1c(OC(C)C(=O)O)ccc2c3c(c(=O)oc12)CCCC3 (centres undefined)
    0.89 | -0.39
> O=C(Cn1c(=O)oc2cc(S(=O)(=O)N3CCCC3)ccc21)NCc1ccccn1
    1.77 | -0.05
> O=C(NCCNc1ccc(Cl)cc1[N+](=O)[O-])c1ccccc1F
    0.19 | -2.35
> CN(CCCC(=O)N1CCCC(C(N)=O)C1)S(=O)(=O)c1ccc(F)cc1 (centres undefined)
    0.12 | 2.36
> Cc1cc(C)c(C(N)=O)c(Nc2ccc(F)cc2)n1
    0.8 | -0.29
> CC1CCN(C(=O)COC(=O)c2ccccc2NC(=O)c2ccco2)CC1
    3.48 | -0.3
> Cc1cccc(NC(=S)N(C)C2CCCCC2)c1
    1.08 | 0.67
> COc1ccc(C2N(c3ccccn3)C(=O)C3CCCN32)c(OC)c1 (centres undefined)
    0.48 | 1.07
> CCc1cc(=O)oc2cc(OCC(=O)NCCN3CCOCC3)c(Cl)cc12
    0.03 | -2.04
> COc1ccc(CNC(=O)C2CCCC2)cc1
    1.32 | 0.45
> O=C(CCC(=O)c1cccs1)NC(c1ccccc1)c1ccccc1
    0.47 | -0.6
> O=C(NN1C(=O)C2C3C=CC(C4CC34)C2C1=O)c1ccc(Cl)cc1Cl (centres undefined)
    0.66 | -1.17
> CC(C)(C)c1ccc(-c2noc(CCC(=O)NCc3ccco3)n2)cc1
    1.52 | 0
> CCN(CC)S(=O)(=O)c1cc(C(=O)O)ccc1OC
    0.82 | -0.93
> COCCN1C(=O)N[C@@H](CCc2ccccc2)C(C(C)=O)=C1C
    0.81 | 0.46
> Cc1ccc(CCNC(=O)Cn2cccc2)cc1
    0.55 | 0.01
> Cc1ccc2nc(NS(C)(=O)=O)sc2c1
    0.13 | -0.57
> CC(C)COC(=O)C1[C@H]2C(=O)N(Cc3cccs3)C[C@]23C=C[C@H]1O3 (some centres undefined)
    1.13 | -1.46
> COc1ccc2c(c1)C(=O)Nc1cc(Cl)ccc1N2
    1.3 | -1.22
> CCN1CCc2nc(NC(=O)CC(c3ccccc3)c3ccccc3)sc2C1
    0.4 | -2.87
> CCOC(=O)c1cc(C)sc1NC(=O)CN1CCN(C(=O)C2CCCO2)CC1 (centres undefined)
    0.73 | -0.22
> Cc1ccc(CSc2nnc(-c3ccccc3N)c(=O)[nH]2)cc1
    0.22 | -2.21
> CCn1cc(S(=O)(=O)CC(=O)Nc2cc(C)on2)c2ccccc21
    1.64 | 0.93
> O=c1[nH]nc(SCc2cc(Cl)ccc2Cl)c(=O)[nH]1
    1.49 | -0.91
> Cc1ccc(NC(=O)CSC(N)=O)cc1Cl
    5.29 | 8.36
> CCCCNC(=O)c1ccccc1SCc1c(C)noc1C
    0.33 | 1.97
> Cn1c(CCNC(=O)c2ccccc2)nc2cc(NC(=O)c3ccco3)ccc21
    1.63 | -3.12
> c1cc2c(cc1CN1CCOCC1)OCO2
    0.31 | 1.07
> CC(=O)N1CCN(C(=O)c2ccc(-c3cccc(C(F)(F)F)c3)o2)CC1
    3.79 | -1.01
